Bioassay records (PubChem)
Sa growth 42C – inhibitors of Staphylococcus aureus growth at 42 °C; S. aureus RN4220 growth, OD600, 20 h; stronger effect = lower value; AID 720641; relative growth, % (test concentration not listed); actives 0.53% (n = 170,000);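 active = growth at 42 °C up to 50% and 20 or more points under that at 30 °C, or under 10% at both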;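 note: 300 nL library stock went into each well; scaled to the means of positive and negative controls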
HCMV NEC inh – inhibitors of HCMV UL50-UL53 nuclear egress complex interaction | HTRF UL50-UL53 interaction, normalized percent inhibition | inhibition, % (test concentration not listed) | actives 0.15% (n = 190,000);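 active = both replicates at 50% or more, plus weaker picks with an unusually low signal ratio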;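 note: stock transfer was 100 nL into about 20 µL; 0% = negative control wells and 100% = wells with untagged competitor protein; inactives centre near -12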
GIV-Gai inh – GIV-Galpha-i interaction inhibition | percent of control (FP), % (no concentration beside the values) | Galpha-i3/FITC-GIV peptide fluorescence polarization, 90 min; stronger effect = lower value; scaled: aluminum fluoride 0%, vehicle 100% | actives 0.42% (n = 210,000) | P08753 | AID 1224905;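 active = replicate mean at 85% of control or lower, very high polarization wells dropped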;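 note: wells of about 15 µL received 100 nL stock; the first replicate is given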
Target sequence (P08753 whole entry, looked up): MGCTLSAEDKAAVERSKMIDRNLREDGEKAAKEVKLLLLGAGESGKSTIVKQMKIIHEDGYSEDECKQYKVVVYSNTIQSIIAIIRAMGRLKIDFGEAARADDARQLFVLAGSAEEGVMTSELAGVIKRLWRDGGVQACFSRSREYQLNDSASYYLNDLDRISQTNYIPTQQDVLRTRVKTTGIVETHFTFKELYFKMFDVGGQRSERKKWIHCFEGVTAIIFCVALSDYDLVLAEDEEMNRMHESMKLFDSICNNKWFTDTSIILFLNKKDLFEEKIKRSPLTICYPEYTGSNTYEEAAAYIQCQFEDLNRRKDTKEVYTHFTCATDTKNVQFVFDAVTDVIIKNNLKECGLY
Sa growth 42C second temp – recorded beside Sa growth 42C, whose call it bears; relative growth, %; measured here: growth at 30 °C;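 optical density after 20 h as mean of two plates; 100% = untreated growth and lower means inhibition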
The depositor's hits bear a star; nt = not tested or not shown; & = joins results of further samples.

molecule,GIV-Gai inh,HCMV NEC inh,Sa growth 42C second temp,Sa growth 42C
O=C(c1ccccc1)c1ccc2nc(Nc3ccccc3Cl)c3nncn3c2c1,102.1,nt,85.8,98.8
CN(C)CCOC(=O)C12CCC3CC(CC(C3)C1)C2,102.5,-12.5,90.7,96.4
Cc1ccc(-c2[nH]c3c(c2-c2c(-n4cccc4)n(C)c(=O)[nH]c2=O)c(=O)[nH]c(=O)n3C)cc1,98.9,-26.1,84.7,106.9
Cn1cc(S(=O)(=O)N2CCc3ccccc32)cc1C(=O)N1CCCc2ccccc21,104.2,-10.0,nt,nt
CN(C(=O)Cn1c(=O)sc2ccccc21)c1nnc(SCc2ccccc2)s1,104.4,-14.5,75.4,101.9
CCc1ccc(CNC(=O)CCN2C(=O)COc3ccccc32)cc1,103.6,nt,86.6,96.7
O=C(NO)c1cccs1,nt,7.3,101.6,100.2
Cc1ccc2nc(Nc3ccc4[nH]c(=O)[nH]c4c3)c(-n3nc(C)cc3C)nc2c1,112.0&102.0,-8.3&-19.9,84.7,96.7
N#CCCSc1nnc(-c2ccc(Br)cc2)n1CCc1ccccc1,nt,0.0,98.9,108.8
Cc1ccc(CCNC(=O)CCn2c(=O)c3cccn3c3ccc(F)cc32)cc1,95.1,-3.4,76.2,171.2
CCc1ccc2nc(Nc3nc4ccccc4c(=O)[nH]3)nc(C)c2c1,100.9,nt,90.3,103.1
O=C(NCCCN1CCN(c2ccccc2F)CC1)c1nnc(-c2ccccc2)o1,97.0,-13.4,nt,nt
Cn1c(=O)c2c(SCC(=O)NCC3CCCO3)nc(-c3cccc(F)c3)nc2n(C)c1=O (stereo unspecified),103.2&103.1,nt,91.3,89.0
O=C(CSc1ncn[nH]1)N1c2ccccc2CCc2ccccc21,96.3,-7.4,92.8,85.9
CCCCn1c(SCC(=O)N2CCCC2)nc2ccccc2c1=O,103.8,12.6,110.0,97.2
CCC(=O)Nc1cccc(C(=O)OCc2cc(=O)n3nc(CC)sc3n2)c1,99.7,nt,87.8,102.2
Cc1cccc(CSc2nc3ccncc3n2CC(=O)N2CC(C)CC(C)C2)c1 (stereo unspecified),105.5,-21.7,nt,nt
CCC(=O)N1CCc2cc(S(=O)(=O)CCC(=O)NCc3cccc(OC)c3)ccc21,112.9,-4.3,101.8,95.8
CCN1CCN(Cc2nc3cc(NC(=O)C4CCCCC4)ccc3n2C(C)C)CC1,99.4,-14.3,nt,nt
CNC(=O)c1ccc(-c2nc(CN3CCN(C(=O)Nc4cc(C)cc(C)c4)CC3)c(C)o2)cc1,101.3,-23.6,nt,nt
O=C(Nc1ccc(F)cc1)C1CCCN(c2nc3ccccc3nc2C(F)(F)F)C1 (stereo unspecified),113.8,17.2,nt,nt
CSc1nsc(SC)c1-c1nn[nH]n1,110.0,-14.4,93.2,109.2
COc1ncnc2c1cnn2C,97.1,6.1,97.9,98.7
O=c1c(C=NCCc2ccccc2)c(NCCc2ccccc2)nc2ccccn12,105.2,nt,81.2,114.8
COc1ccc(-c2cc(C(F)(F)F)n3nc(C(=O)NCCN4CCOCC4)cc3n2)cc1,nt,-69.0,63.5,90.3
O=C(NCC1CCCC(CNC(=O)Nc2ccc3c(c2)OCO3)C1)Nc1ccc2c(c1)OCO2 (stereo unspecified),nt,-26.0,91.7,83.8
CC12CN(C(=O)c3ccccc3)CC(C)(CN(C(=O)c3ccccc3)C1)C2,103.6,-14.7,84.2,100.8
Cc1ccc(NC(=O)c2ccc3nncn3c2)cc1C,101.6,-39.5,nt,nt
COc1ccc(C2=CC(c3cccc(OC)c3)n3ncc(C(=O)Nc4ccccc4)c3N2)cc1 (stereo unspecified),106.7,-6.0,nt,nt
O=C(NC1CCCCC1)c1ccc2c(c1)sc1nc(-c3ccc(F)cc3)cn12,103.5,nt,95.9,94.0
O=C(Oc1ccc(F)cc1)c1nsc(Cl)c1Cl,nt,-1.5,89.7,100.7
CC(=O)n1c(C#N)c(O)c2ccccc21,99.1,-43.3,66.6,111.0
CCOC(=O)c1ccc(N2C(=O)c3n[nH]c(-c4ccco4)c3C2c2ccc(C(=O)OC)cc2)cc1 (stereo unspecified),110.1,4.9,72.3,105.5
O=C(NCc1cccnc1)C1CCN(c2ncnc3c2sc2cccc(F)c23)CC1,100.8,39.3,nt,nt
CC(=O)Nc1nnc(CCS(=O)(=O)c2ccc3ccccc3c2)s1,102.3,-1.2,104.4,101.0
COc1ccc2cc3c(nc2c1)N(S(=O)(=O)c1ccc(Cl)cc1)CC3,99.9,-13.6,nt,nt
Cc1ccc(NC(=O)Cn2c(=O)oc3cc(S(=O)(=O)NC4CCCC4)ccc32)cc1,112.0,nt,89.9,97.9
COc1cc(C2C(C(=O)Nc3ccccc3)=C(C)Nc3nnnn32)ccc1OC(=O)c1ccccc1 (stereo unspecified),102.7,-6.8,nt,nt
CCCCN(CCCC)CCNC(=O)c1cn(CC)c2ccc(S(=O)(=O)N(C)C3CCCCC3)cc2c1=O,102.0,9.0,89.8,95.3
c1ccc(C2=NNC(c3ccccc3)=NN2)cc1,nt,-37.3,74.6,90.6
CCOC(=O)CN1CC23C=CC(O2)C(C(=O)O)C3C1=O (stereo unspecified),95.0,-2.5,97.1,104.9
Cc1c(O)nc(SC2CC(=O)N(c3ccccc3)C2=O)[nH]c1=O (stereo unspecified),105.9,-9.8,95.8,124.6
Cc1ccc(NC(=O)c2sc(C)nc2C)c(C)c1,103.5,-11.6,nt,nt
Cc1cc(NC2CCCC2)n2ncc(-c3ccc(F)cc3)c2n1,102.0,13.8,nt,nt
COc1ccc(-c2cc(C(=O)N3CCN(C(c4ccccc4)c4ccccc4)CC3)no2)cc1,102.8,nt,97.1,89.1

Rewritten with two lines to a compound: entries from further up.
The line under a structure holds: GIV-Gai inh	HCMV NEC inh	Sa growth 42C second temp	Sa growth 42C
> c1ccc(C2=NNC(c3ccccc3)=NN2)cc1
  nt	-37.3	74.6	90.6
> COc1ccc2cc3c(nc2c1)N(S(=O)(=O)c1ccc(Cl)cc1)CC3
  99.9	-13.6	nt	nt
> Cc1c(O)nc(SC2CC(=O)N(c3ccccc3)C2=O)[nH]c1=O (stereo unspecified)
  105.9	-9.8	95.8	124.6

Later entries
molecule,GIV-Gai inh,HCMV NEC inh,Sa growth 42C second temp,Sa growth 42C
NC(=O)C1CCN(C(=O)c2cc(-c3ccccc3Cl)on2)CC1,99.6,-20.4,nt,nt
O=C(CCC(C(=O)O)N1C(=O)c2ccccc2C1=O)Nc1ccc2c(c1)COCO2 (stereo unspecified),95.7,-4.9,86.4,76.6
O=C(Nc1cccc(-c2nc3cccnc3s2)c1)c1cccc(Br)c1,100.4,-5.2,91.9,101.6
C=CCN(C(=O)C(C)Oc1cc(C(F)(F)F)c2c(C)nn(C)c2n1)c1ccccc1 (stereo unspecified),102.6,-35.6,nt,nt
CC(C)CN1C(=O)/C(=C/C=C/c2ccccc2)SC1=S,104.2,nt,88.5,115.7
O=C1CSC(=Nc2ccccc2)N1,nt,-17.4,87.7,120.3
Cn1c(N)cc(=O)n(C)c1=O,nt,4.7,95.7,101.7
N#Cc1cc2c(cc1C#N)N(Cc1ccccc1)CCN2Cc1ccccc1,102.7,nt,89.5,114.5
Cc1cccc(NC(=O)C2CCN(S(=O)(=O)c3ccc(F)cc3)CC2)c1C,107.0,-34.0,82.4,93.3
COc1cc(CO)ccc1OCc1cc(Cl)cc2c1OCOC2,nt,-5.9,87.6,111.4
C=CCN1C(=O)/C(=c2\sc3n(c2=O)C(c2ccc(Cl)cc2)C(C(=O)OCC)=C(C)N=3)c2ccccc21 (stereo unspecified),103.8,-17.6,nt,nt
COC(=O)c1ccc(NC(=O)COc2cccc3c2CCNC3=O)cc1,101.7,-38.1,87.4,83.5
CCN(CC)CCOC(=O)c1ccc2nc(NC(=O)c3ccc(C(=O)OC)cc3)sc2c1,104.8,-3.0,nt,nt
Cc1cccc(N2COc3ccc(Br)cc3C2)c1,103.6,-35.6,42.2,58.0
Cc1cc(=O)n2[nH]c(NC(=O)c3cccc(Cl)c3)nc2n1,101.3,-23.1,87.8,91.5

An excerpt from above, reduced to Sa growth 42C, Sa growth 42C second temp and GIV-Gai inh.
Compound	Sa growth 42C	Sa growth 42C second temp	GIV-Gai inh
CC(C)CN1C(=O)/C(=C/C=C/c2ccccc2)SC1=S	115.7	88.5	104.2
O=C1CSC(=Nc2ccccc2)N1	120.3	87.7	nt
Cn1c(N)cc(=O)n(C)c1=O	101.7	95.7	nt

The list continues:
molecule,GIV-Gai inh,HCMV NEC inh,Sa growth 42C second temp,Sa growth 42C
Cc1nc(-c2cc(S(=O)(=O)N3CCC(C(=O)N4CCN(c5ccccn5)CC4)CC3)c(C)s2)no1,104.7,-3.3,nt,nt
Cc1ccc(OCC(O)CN2CCC(C(N)=O)CC2)cc1C (stereo unspecified),101.8,-9.8,87.7,83.8
Oc1ccc(N=Cc2c[nH]c3ccccc23)cc1,94.6,nt,37.0,82.9
COc1ccc(NC(=O)CN(C)S(=O)(=O)c2ccc3c(c2)CCCC(=O)N3)cc1OC,102.8,-8.9,nt,nt
CC(C)(C)c1ccc(C(=O)NNc2ncnc3c2cnn3-c2ccccc2)cc1,97.4,nt,77.0,107.1
CC(C)(CO)NCc1ccc(-c2ccccc2F)o1,98.5,-12.8,nt,nt
COC(=S)NC(=O)/C=C/c1ccccc1,102.2,4.6,73.8,84.9
Cc1cc(C)c(NC(=O)C2CC3c4ccccc4C2C2C=CC=CC32)c(C)c1 (stereo unspecified),nt,-1.8,88.2,123.5
CCOC(=O)c1ccc(-n2c(O)c(/C=N/N3CCOCC3)c3ccccc3c2=O)cc1,nt,-33.1,78.3,93.8
OC(CN1CCN(c2ccc(C(F)(F)F)cn2)CC1)c1cc(-c2cc(Cl)cc(Cl)c2)no1 (stereo unspecified),99.9,-13.8,84.8,103.7
COC(=O)c1sc2nc(C)cc(C(F)(F)F)c2c1N,nt,-12.9,89.4,76.3
Cc1cccc(Nc2nc3nonc3nc2Nc2cccc(C)c2C)c1C,97.6,-36.3,68.8,80.2
COc1ccccc1/C=C1\SC(=O)N(CCC(=O)N2c3ccccc3Sc3ccccc32)C1=O,93.6,nt,90.5,94.7
O=C(NCCc1ccc(Cl)cc1)c1nnc(Cc2ccc(Cl)cc2Cl)o1,105.4,-7.9,87.3,101.9
COc1ccc2ncc(S(=O)(=O)c3ccccc3)c(N3CCCC(C)C3)c2c1 (stereo unspecified),100.5,16.9,nt,nt
CCOc1cccc(NC(=O)C2CC(=O)N(CC)C(=Nc3ccc(F)cc3)S2)c1 (stereo unspecified),107.1,-21.3,92.2,101.7
O=C(Nc1nccs1)C1=Cc2cc(Cl)ccc2OC=C1,101.3,-8.3,nt,nt
CCOc1cc(C2C(C(=O)OCc3ccccc3)=C(C)NC3=C2C(=O)CCC3)cc(Br)c1O (stereo unspecified),100.6,-14.2,nt,nt
COc1ccc(NC(=O)CSc2nc3ccncc3[nH]2)cc1,101.9,-0.6,96.6,82.6
Cc1cccc(C(=O)N2CCN(c3nc4nc(C)ccc4o3)CC2)c1,101.0,-10.0,nt,nt
COc1cccc(N2C(=O)NC(=O)/C(=C\c3ccc(OC)c(Br)c3)C2=O)c1,103.9,-8.8,nt,nt
CCOC(=O)c1c(NC(=O)Cc2ccccc2)sc(C(=O)Nc2cc(C(F)(F)F)ccc2Cl)c1C,92.1,-22.0,nt,nt
CCCS(=O)(=O)/C(C#N)=C/c1ccc(-c2ccc(OC)cc2)s1,136.1,-0.8,98.8,106.8
Cc1cc(=O)nc2c3ccccc3n(C(C)C(=O)N(C)Cc3ccccc3)n12 (stereo unspecified),97.8,nt,80.8,89.3
CCCCn1c(CCC(=O)O)nc2cc(S(=O)(=O)N(C)C)ccc21,nt,-17.4,104.0,106.3
NS(=O)(=O)c1ccc(CCNS(=O)(=O)c2ccc3[nH]c(=O)ccc3c2)cc1,118.2,-20.8,nt,nt
N/C(=N\OC(=O)COc1ccc(Cl)cc1Cl)c1ccncc1,103.3,-30.8,75.9,78.3
Cc1cccc(OCc2nnc(SCc3cc(=O)oc4ccc5ccccc5c34)o2)c1,nt,-8.0,93.8,107.5
CCOC(=O)/C(C#N)=C1\NC(CO)C(c2ccccc2)O1 (stereo unspecified),100.4,-8.0,79.8,108.9
CCCCN(CC)S(=O)(=O)c1ccc2[nH]c(=O)cc(C(=O)NCCc3ccc(Cl)cc3)c2c1,103.3,nt,82.9,138.2
COCCCN=C(c1ccco1)n1c(=S)nc(-c2ccco2)n(CCCOC)c1=S,nt,-56.8,74.0,56.0
O=C(c1ccccc1F)N1CCC(c2noc(-c3ccc(S(=O)(=O)N4CCCC4)cc3)n2)CC1,98.6,-11.1,nt,nt
CCC1(CC)C(=O)N(C)C(=O)NC1=Nc1ccccc1,99.0,-31.7,100.0,94.9
COc1ccc(C2=NN(C(=O)c3cc(OC)c(OC)c(OC)c3)C(c3ccc(OC)c(OC)c3)C2)cc1OC (stereo unspecified),105.4,-16.8,nt,nt
Cc1ccc(NC(=O)n2ncc3c(C)cccc32)cc1,105.4,-22.4,nt,nt
COc1ccc2c(c1)-c1nc(C)sc1CC2,97.6,nt,75.5,90.5
